2A firefly – lowers the firefly signal of an FMDV 2A StopGo reporter; HEK cells with a luciferase reporter of 2A StopGo recoding; AID 1745856; hit rate 0.23% among 120,000; Potency, µM (top dose mostly 57.5 µM), for inactives: top-dose signal change, negative = less light; active = well fitted falling curve with a large enough effect; inconclusive = small, poorly fitted or top-dose-only effect; inactive = no such curve, though single readings can be large or run the other way; further: nearly all actives have a fitted effect of over 60% in size; overnight with compound
StopGo RLuc – lowers the Renilla signal of an FMDV 2A StopGo reporter | HEK cells with a luciferase reporter of 2A StopGo recoding | Potency, µM (series often up to 57.5 µM), without a hit: at the top dose signal change, negative = less light | hit rate 0.32% among 120,000 | AID 1745857; active means well fitted falling curve with a large enough effect; inconclusive means small, poorly fitted or top-dose-only effect; inactive means no such curve, though single readings can be large or run the other way; further: nearly all actives have a fitted effect of over 55% in size; overnight with compound
* hit, by the source's call; u = inconclusive; & = joins results of further samples; [ ] = dose if it differs, or a comment. On the % scale 0 is the no-effect control and ±100 the full control effect; potency means the concentration at half of the fitted maximal effect. These rows are one share of the data; rates above refer to the full screens.

Compound | 2A firefly | StopGo RLuc
Cc1cc(C)c2c(=O)cc(C(=O)Nc3ccc(OC(F)F)cc3)oc2c1 | -6% | -6%
CCCn1c(C)cc(C(=O)COC(=O)c2nn(CCC)c(=O)c3ccccc23)c1C | 103%[activator] | 15%
Cc1ccc(NC(=O)CSc2nc(C)c(Cc3ccccc3)c(=O)[nH]2)cc1C | -8% | -4%
O=C(O)c1ccc(COc2ccc(Br)cc2)cc1 | 105%[activator] | 0%
Cc1ccc2nc(CSc3nnc(NC(=O)C(C)C)s3)cc(=O)n2c1 | -19% | -5%
O=C(CN1CCSc2ccccc21)NCc1ccccc1F | 85%[activator] | 14%
CCn1cc(C(=O)NCCCN2CCCC(C)C2)c(=O)c2cc(S(=O)(=O)N(C)C3CCCCC3)ccc21 (centres undefined) | -11% | 70%[activator]
O=C(CC1CCCC1)NCc1ccncc1 | 1% | 7%

More records follow.
Compound | 2A firefly | StopGo RLuc
COc1ccc(OC)c(NC(=O)CSc2nc3c(c(=O)n2C)SCC3)c1 | -21% | -16%
CCC(CC)NC(=O)Cn1cnc2c1c(=O)n(C)c(=O)n2C | -12% | -12%
Cc1cc(Cl)ccc1NS(=O)(=O)c1cc(-c2c(C)nn3c2NC(=O)CCC3=O)ccc1C | 24% | 225%[activator]
COc1ccc(Cl)cc1NC(=O)c1cccc(-c2ccc(S(=O)(=O)N3CCCC3)cc2)c1 | -10% | 4%
CCc1ccc(NC(=O)C2CCN(c3ncnc4c3sc3ncccc34)CC2)cc1 | -6% | -11%
COc1cccc(/C=C(/C#N)C(=O)c2c[nH]c3cc(F)ccc23)c1 | 30% | 3%
CC(C)CC(NC(N)=O)C(=O)Nc1ccc(C(C)(C)C)cc1 (centres undefined) | 19% | 18%
CCCCn1c(SCC(=O)c2ccccc2)nc2c(sc3ccccc32)c1=O | -20% | -19%

(further entries)
Compound | 2A firefly | StopGo RLuc
CC(=O)c1c(C)oc2c(Cl)cc(NS(=O)(=O)c3ccc(C(C)(C)C)cc3)cc12 | 20% | 41%
Cc1c(C(=O)N2CCCC2)oc2c1-c1nn(CC(=O)NCc3ccc(OC(C)C)cc3)cc1CC2 | -17% | -9%
COc1cccc(C2C(C(=O)Nc3ccc(C)cc3C)=C(C)Nc3c(C(=O)Nc4cccc(C)c4)cnn32)c1OC (centres undefined) | -7% | 5%
C=CCC(C(=O)c1ccccc1)C(=O)c1ccccc1 | 14% | 22%
COc1ccc2nc(Nc3nc(CSc4ccc(C)cc4)cc(=O)[nH]3)nc(C)c2c1 | 5% | -16%
O=C(Cn1nc(-c2ccc(Cl)cc2)c2ccccc2c1=O)Nc1cccc(Br)c1 | -10%&-13% | -12%&-5%
CCOC(=O)C1CCN(C(c2ccccc2)c2c(O)cc(C)n(Cc3ccco3)c2=O)CC1 (centres undefined) | -7% | 29%
Cc1ccc2oc(C(=O)NCC(c3cccs3)N3CCCCC3)cc(=O)c2c1 (centres undefined) | 4% | -5%

Record cards, from the list above. Screens in order: 2A firefly, StopGo RLuc
Listed for `CC(C)CC(NC(N)=O)C(=O)Nc1ccc(C(C)(C)C)cc1` (centres undefined) → 19%, 18%
Listed for `COc1ccc(OC)c(NC(=O)CSc2nc3c(c(=O)n2C)SCC3)c1` → -21%, -16%
Listed for `CCCCn1c(SCC(=O)c2ccccc2)nc2c(sc3ccccc32)c1=O` → -20%, -19%
Listed for `O=C(CC1CCCC1)NCc1ccncc1` → 1%, 7%

The results go on.
Compound | 2A firefly | StopGo RLuc
Cc1cn2c(=O)cc(COc3cccc(NC(=O)c4ccccc4C)c3)nc2s1 | -7% | -13%
CCN1CCN(C(c2ccc(F)cc2)c2c(O)cc(C)n(CCOC)c2=O)CC1 (centres undefined) | -26% | -11%
Cc1ccc(CN(C(=O)COc2ccccc2[N+](=O)[O-])c2ccccn2)o1 | 160%[activator] | 61%[activator]
O=C(NCCc1ccccc1)c1ccc(Cn2c(=O)c3cccn3c3cccnc32)cc1 | -9% | 3%
COc1ccccc1Nc1nc(-c2ccc(O)c(C(N)=O)c2)cs1 | 133%[activator] | -2%
CCN1CCN(c2nc(-c3ccccc3)nc3cc(OC)c(OC)cc23)CC1 | -15% | -22%
CCOC(=O)c1oc2ccc(S(=O)(=O)n3nc(-c4cc(OCC)c(OCC)c(OCC)c4)cc3N)cc2c1C | 16% | -14%
CCc1ccc(NC(=O)CSc2nnc(CC)c(CC)n2)cc1 | -19% | -14%

(next part)
Compound | 2A firefly | StopGo RLuc
O=C1CCSC2(C(=O)N(Cc3ccc(F)cc3)c3ccccc32)N1c1ccc(F)c(F)c1 (centres undefined) | -12% | 10%
COc1ccc2[nH]c(=O)c(CN(C(=O)c3ccccc3Cl)c3ccccc3)cc2c1 | 0% | u
CCOc1ccccc1C1CC(=O)Oc2c1c(=O)n(C)c1ccccc21 (centres undefined) | -10% | 6%
CC(C)c1cc(C=O)c(O)c(C=O)c1 | 23% | -13%
Cc1ccc(NC(=O)c2ccc(CSc3ccc(Cl)cc3)cc2)c(C)c1 | 18% | 10%
CCOC(=O)c1cccc(NS(=O)(=O)c2cc(-c3nn(C)c(=O)c4c3CCCC4)ccc2CC)c1 | 8% | 160%[activator]
Cc1cccc(-c2nnc(SCc3cn4cccc(C)c4n3)o2)c1 | 0% | 21%
CCOC(=O)c1c(S(=O)(=O)N2CCN(c3cccc(C(F)(F)F)c3)CC2)c(C)n(C)c1C | -12% | -5%

(listing goes on)
Compound | 2A firefly | StopGo RLuc
CN(C(=O)CCc1nc(-c2ccccc2F)no1)c1ccc(Cl)cc1 | -8% | 8%
CCCCc1nc2ccccc2n2c(-c3ccc(C)cc3)c3c(=O)n(C)c(=O)n(C)c3c12 | -20% | -11%
O=C(Nc1ccc(F)cc1F)c1ccc2c(=O)n3c(nc2c1)CCCCC3 | 299%[activator] | 8%
CC1CCN(C(=O)CN(C)CC(=O)Nc2c(Cl)cccc2Cl)CC1 | -9% | -9%
COc1cc(C(=O)NCC(c2ccc(Cl)cc2)N2CCOCC2)cc(OC)c1OC (centres undefined) | -2%&11% | -5%&37%
CCOC(=O)N1CCN(Cc2nc3c(c(=O)n(C)c(=O)n3C)n2CC(=O)OC)CC1 | -4% | -17%
Cc1cccc(C(=O)NCc2nnc(SCC(=O)NCc3ccccc3)n2-c2ccccc2)c1 | -12% | 3%
CC(=O)Nc1ccc(NC(=O)COC(=O)c2ccc3ccccc3n2)cc1 | 10% | 2%

(list continues)
Compound | 2A firefly | StopGo RLuc
Cc1oc2ccc(OCc3ccc(Cl)cc3)cc2c1C(=O)O | 0% | 21%
O=C(NCc1ccccc1Cl)c1cc2c(s1)-c1ccc(Cl)cc1SC2 | 2% | 45%[activator]
COc1cc(CNC2CN3CCC2CC3)cc(Cl)c1OCc1ccccc1Cl (centres undefined) | -6% | -9%
Cc1ccccc1OCC(=O)OCc1cc(=O)n2nc(-c3cccs3)sc2n1 | -7% | -9%
CCCCn1c(CCC(=O)Nc2ccccc2C(C)(C)C)nc2c1c(=O)[nH]c(=O)n2CCC | 0% | -3%
CC(=O)Nc1ccc2oc(-c3cccc4ccccc34)nc2c1 | 171%[activator] | 2%
Cc1ccccc1CCNC(=O)C1CC2CCCC(C1)C2=O (centres undefined) | 18% | -9%[1.06 µM]
C=CC[C@H]1CC(Cc2ccccc2)=C[C@H](CC=C)N1 | -5% | 24%

Next results.
Compound | 2A firefly | StopGo RLuc
N#Cc1ccc(NCc2cccc(NC(=O)C3CC3)c2)nc1 | 0% | 119%[activator]
Fc1ccc(Br)cc1-c1nc2cc3c(cc2[nH]1)OCCO3 | 0% | 10%
Cc1ccc(NC(=O)CSCc2nc3ccccc3c(=O)[nH]2)cc1 | 44%[activator] | -13%
COc1ccc(NC(=O)CN(C)S(=O)(=O)c2ccc3[nH]c4c(c3c2)CCCC4)cc1OC | -15% | -1%
Cc1ccc2nc(N3CCN(C(=O)C4COc5ccccc5O4)CC3)sc2c1 (centres undefined) | 63%[activator] | -9%
Cn1c(=O)n(C)c2cc(N3CCOCC3)c(NC(=O)c3ccc(C(C)(C)C)cc3)cc21 | -12% | -8%
C[C@H](O)[C@@H]1CN2CCc3ccc(-c4ccc5c(c4)OCO5)cc3[C@@H]2C[C@@H]1N(C)CC1CCCCC1 | 27% | -9%
COc1cc(C2c3c(n[nH]c3C)C(=O)N2c2ccc(C)cc2)ccc1O (centres undefined) | 16% | 36%[activator]

Exported with two lines to a compound: part of the list above
Values in the order: 2A firefly	StopGo RLuc
N#Cc1ccc(NCc2cccc(NC(=O)C3CC3)c2)nc1
→ 0%	119%[activator]
Fc1ccc(Br)cc1-c1nc2cc3c(cc2[nH]1)OCCO3
→ 0%	10%
Cc1ccc(NC(=O)CSCc2nc3ccccc3c(=O)[nH]2)cc1
→ 44%[activator]	-13%

(further entries)
Compound | 2A firefly | StopGo RLuc
CCc1cc2c(cc3c(=O)n(CC(=O)N4CCCCC4)nc(CC)n32)s1 | -2% | 2%
Cc1oc2cc(OCC(=O)NCCCOC(C)C)ccc2c(=O)c1-c1ccccc1 | 13% | 0%
O=C(CSc1nnc(-c2ccc(Cl)cc2)n1Cc1ccco1)N1CCCCC1 | 14% | 33%[activator]
Cc1ccc2c(CC(=O)Nc3ccc(S(=O)(=O)N4CCC(C)CC4)cc3)coc2c1 | -5% | 85%[activator]
COc1ccc(-c2c(C)oc3cc(OCC(=O)OC(C)(C)C)ccc3c2=O)cc1 | u | u
COC(=O)c1c(-c2ccc(Cl)cc2)noc1N1CCN(c2cccc(C(F)(F)F)c2)CC1 | 118%[activator] | -3%
Cc1cc(S(=O)(=O)N(C)C)cc(NS(=O)(=O)c2cccc(Cl)c2Cl)c1C | -9% | 136%[activator]
O=c1c2cc(Cl)ccc2ncn1Cc1ncon1 | 23% | 10%

(more compounds)
Compound | 2A firefly | StopGo RLuc
COc1ccc(CNC(=O)CCS(=O)(=O)c2ccc3c(c2)oc(=O)n3C)cc1 | -17% | -11%
COc1cc(/C=C(/C#N)c2ccc(C(F)(F)F)cn2)cc(OC)c1 | -8% | -4%
Cc1ccccc1CNC(=O)C(=O)NCC(c1ccco1)S(=O)(=O)c1cccs1 (centres undefined) | -20% | -7%
COc1ccccc1NC(=O)C1=C(C)Nc2ncnn2C1c1sccc1C (centres undefined) | -21% | -13%
CC(C)Cn1c(=O)c2ccccc2n2c(SCC(=O)Nc3cccc(F)c3)nnc12 | -3% | -4%
O=C(Nc1cccc(NC(=O)C2CCCC2)c1)C1CCCC1 | 17% | 105%[activator]
Cn1c(SCC(=O)NCc2ccco2)nnc1-c1ccc2c(c1)OCCO2 | 2% | -2%
CCN(CC)C(=O)c1cc(-c2ccc(Br)cc2)nc2ccccc12 | 1% | 16%

The list continues.
Compound | 2A firefly | StopGo RLuc
CC(Nc1nc2c(c(=O)[nH]c(=O)n2C)n1CCCc1ccccc1)c1ccccc1 (centres undefined) | 8% | 18%
O=C(Cn1cc(C(=O)C2CCCCC2)c2ccccc21)Nc1ccccc1Cl | -12% | -16%
CCn1cnc2c1c(=O)n(CC(=O)Nc1ccc3c(c1)OCCO3)c(=O)n2Cc1ccccc1 | 15% | 0%
CC(=O)Nc1ccccc1-c1nc2ccccc2n(CC(=O)c2ccc(Br)cc2)c1=O | 3% | -5%
CNS(=O)(=O)Cc1ccccc1CNC(=O)c1cc(Br)ccc1Cl | -5% | 28%
CC1CCc2nc3ccccc3c(C(=O)NC3CCCCCC3)c2C1 (centres undefined) | 60%[activator] | -4%[1.06 µM]
CCc1ccccc1NC(=O)c1nc(-c2ccncc2)no1 | 9% | -8%
COC(=O)C(C)Oc1ccc2c(-c3ccccc3)cc(=O)oc2c1 (centres undefined) | -3% | -4%

(list continues)
Compound | 2A firefly | StopGo RLuc
CC1CCC(NC(=O)c2ccc3ccccc3n2)CC1 (centres undefined) | 132%[activator] | -8%[1.06 µM]
COc1cc2c(cc1OC)/C(=C/S(=O)(=O)c1cccc(C)c1)NCC2 | 10% | 102%[activator]
Cc1ccc(-n2c(SCC(=O)Nc3ccc(F)c(Cl)c3)nc3c(=O)[nH]cnc32)cc1 | 0% | 24%
Cc1ccc(C(=O)c2sc(Nc3ccc(F)cc3)c(C#N)c2N)cc1 | 5% | 11%
Cc1ccc(-c2cnc(CCC(=O)NCCN3CCOCC3)o2)cc1C | 28% | -5%
Cc1[nH]n(-c2nc(-c3ccccc3)cs2)c(=O)c1CC(=O)Nc1cccc(Cl)c1 | 9% | -5%
Cc1cn2c3c(=O)[nH]c(=O)n(C)c3nc2n1CCN1CCN(Cc2ccc(F)cc2)CC1 | -5% | -1%
CCCCCNC(=O)C(C#N)c1nc2ccccc2nc1OC(C)C (centres undefined) | 16% | 28%

Continuation.
Compound | 2A firefly | StopGo RLuc
CCOc1ccccc1NC(=O)Nc1ccccc1OCc1cc(=O)n2ccccc2n1 | 1% | 9%
Cc1ccc(Sc2csc(-c3ccccc3)n2)cc1 | 174%[activator] | 6%
CCOC(=O)c1oc2ccccc2c1Cn1cc(C(F)(F)F)ccc1=O | 12% | 16%
Cn1c(=O)c2c(nc(Cl)n2CC(=O)N(C2CCCC2)C2CCS(=O)(=O)C2)n(C)c1=O (centres undefined) | 11% | 4%
Cc1ccc(OCCN(C)C(=O)c2cc(=O)[nH]c3ccccc23)cc1 | 19% | 26%
Cc1c(-c2ccccc2)oc2c(C(=O)N3CCC(C)CC3)cccc2c1=O | -10% | 52%[activator]
COc1ccc(C)cc1NC(=O)CC1NCCNC1=O (centres undefined) | -9% | -5%
Cc1nn(CCC(=O)N2CCN(c3ccccc3F)CC2)c(C)c1S(=O)(=O)N1CCCC1 | -16% | -9%
Cc1ccc(N(CC(=O)NC2CCCCCCC2)S(=O)(=O)N(C)C)cc1 | 11% | 50%[activator]
O=C(NC1CC1)C(NCc1ccc(F)cc1)c1ccc(F)cc1 (centres undefined) | -8% | -4%
COC(=O)C(C)NC(=O)C12CC3CC(CC(Br)(C3)C1)C2 (centres undefined) | -10% | -2%

Bioassay records: PubChem, National Center for Advancing Translational Sciences (NCATS)
